Compound activity deposited in PubChem BioAssay by National Center for Advancing Translational Sciences (NCATS).
HSD17B inhib – blocks hydroxysteroid 17-beta dehydrogenase activity | recombinant HSD17B10, NADH fluorescence kinetic; many of its hits are not listed in these tables | Potency, µM (series often up to 57.1 µM), without a hit: at the highest dose activity change, negative = inhibition, hits mostly inhibitors | 7.6% of 75,000 active | AID 893; active = well fitted inhibition curve with a large enough effect; inconclusive = small, poorly fitted or top-dose-only effect; inactive = no such curve, though single readings can be large or run the other way;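 also: the protocol describes HADH2 (HSD17B10) and not the HSD17B4 of the title; nearly all actives have a fitted effect of over 70% in size; most hits overshoot -100% by far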
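20 nM HADH2, pH 9.0 Tris/Tween; cpd preinc 15 min RT; start w/ 1 mM NAD+ + 90 uM b-hydroxybutyryl-CoA; kinetic fluor ex360/em450 q30s x 4 min; delta last-first.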
* marks the source's active call; other numbers are inactive results; ? = inconclusive; & = joins results of further samples; [ ] = remark or other dose. % is scaled to controls: 0 for no effect and ±100 for the full control effect; potency is read from the fitted curve at half-maximal effect. Not all compounds are listed; count on the stated rates, not on these rows.

Sample of the layout:
SMILES	HSD17B inhib
COC(=O)[C@@]1(Cc2ccc(OC)cc2)[C@H]2c3cc(C(=O)N(C)C)n(CCSCCO)c3C[C@H]2CN1C(=O)c1ccccc1	1.6%
COc1ccc2c(c1)c1ncnc(N3CCN(Cc4ccc5c(c4)OCO5)CC3)c1n2C	?

The list itself, from the start:
SMILES	HSD17B inhib
COC(=O)[C@@]1(Cc2ccc(OC)cc2)[C@H]2c3cc(C(=O)N(C)C)n(CCSCCO)c3C[C@H]2CN1C(=O)c1ccccc1	1.6%
COc1ccc2c(c1)c1ncnc(N3CCN(Cc4ccc5c(c4)OCO5)CC3)c1n2C	?
COc1ccc(CN(Cc2cc3cc4c(cc3[nH]c2=O)OCO4)C(=O)NC2CCCCC2)cc1	31.6µM*
CCOC(=O)N1CCC(NC(=O)Cn2cc3c(n2)CCCC3)CC1	18.9%
CCOC(=O)c1c(C)n(C)c2ccc(O)c(CN3CCC(C)CC3)c12	-0.4%
COc1ccc2c(C)cc(SCC#N)nc2c1	-4.7%
CCOc1ccc(-n2c(=O)[nH]cc(C(=O)N3CCc4ccccc43)c2=O)cc1	-5.5%
Cc1cnc(CNc2cc(-c3ccc(C(=O)N(C)C)cc3)ncn2)cn1	?
O=C1C(Cl)=C(NCC2CCCO2)C(=O)N1C1CCCCC1 (stereo unspecified)	-0.1%
CC1Cc2ccccc2N1C(=O)C1CCN(S(=O)(=O)c2cccs2)CC1 (stereo unspecified)	6.0%
CC(C)NC(=O)N1CC[C@@]2(CCCN(S(=O)(=O)c3ccccc3)C2)C1	2.0%
O=c1cc(CN2CCOCC2)c2c(ccc3ccccc32)o1	6.7%
COc1ccc(C(c2nnnn2Cc2ccccc2)N2CCN(C(=O)c3ccco3)CC2)cc1OC (stereo unspecified)	5.0%
O=S(=O)(Cc1ccccc1)N1CCN(Cc2ccc3c(c2)OCO3)CC1	-6.6%
COC(=O)C1OC(=O)C2OC23[C@]2(C)C(O)CC4C(C)(C)C(OC(C)=O)CC(OC(C)=O)[C@@]4(C)C2CC[C@@]13C (stereo partly specified)	8.7%&2.9%
COCCN(C(=O)c1csnn1)C(C(=O)NC1CCCCC1)c1sccc1C (stereo unspecified)	-1.5%
CCOC(=O)C1CCCN(C(=O)CCNS(=O)(=O)c2ccc3c(c2)CCC(=O)N3)C1 (stereo unspecified)	0.1%
Cc1csc(NC(=O)Cc2nn(C)c(=O)c3ccccc23)n1	1.2%
COc1cccc(Nc2ncc3ncc(=O)n(CCc4ccccc4)c3n2)c1	0.2%
CCOC(=O)COn1c(=O)c[n+]([O-])c2ccccc21	1.9%
Cn1c(NCc2cc(Br)ccc2O)nc2ccccc21	-7.7%
Cc1ccsc1C(=O)OCC(=O)NCc1ccc2c(c1)OCO2	-1.5%
Cc1c(C(=O)NCC2CCCO2)oc2ccc(S(=O)(=O)N3CCCC3)cc12 (stereo unspecified)	13.0%
C=CCSc1nc2c(c(=O)[nH]c(=O)n2C)n1C/C=C(/C)Cl	6.6%
CCOC(=O)N1CCN(S(=O)(=O)c2ccc(C)c(C)c2C)CC1	-5.2%
CCNc1nnc(-c2ccccc2OC)s1	25.1µM*
CCn1cnc2c1c(=O)n(Cc1nnc3n1-c1ccccc1SC3)c(=O)n2Cc1ccccc1	?
Cc1cccc(C)c1NC(=O)C[N+](C)(C)C	-3.0%&2.9%
Cc1ccc(NC(=O)Cn2c(C)cc(C)c(C#N)c2=O)c(Cl)c1	-22.9%
COC(=O)c1[nH]c2ccc(C)cc2c1NS(=O)(=O)c1ccc(F)c(C)c1	-29.9%
O=[N+]([O-])c1ccccc1S(=O)(=O)NCC1CCC(CNCC2CCc3ccccc3C2)CC1 (stereo unspecified)	-11.0%
CCOc1ccc2c(c1)sc(=NC(=O)C1CC1)n2C	?
CCCS(=O)(=O)N1CCC(C(=O)NCCN(C)Cc2ccccc2)CC1	4.2%
CCOC(=O)N1CCC(NC(=O)C2CCCN(C(=O)N3CCOc4ccccc43)C2)CC1 (stereo unspecified)	5.1%
CC(=O)Nc1nc(-c2ccc(Br)s2)cs1	6.1%
CCC(NS(=O)(=O)c1c(C)[nH]c(=O)[nH]c1=O)C12CC3CC(CC(C3)C1)C2 (stereo unspecified)	8.8%
Cc1cc(NC(=O)CSc2nnnn2C2CCCC2)no1	-2.5%
O=C1C2C(C(=O)N1c1ccc3c(c1)OCO3)C1C=CC2C12CC2 (stereo unspecified)	13.1%
CS(=O)(=O)N(CC(=O)N1CCc2ccccc2C1)c1ccc2c(c1)OCO2	-4.5%
CCOC(=O)n1c(=O)oc2cc(S(=O)(=O)N3CCOCC3)ccc21	6.1%
CC1(C)C(=O)C=C[C@@]2(C)C1C=C[C@@]1(C)C2CC[C@@]2(C)C(c3ccoc3)OC(=O)C3OC312 (stereo partly specified)	-1.0%
CCOc1ccc2[nH]c(=O)c(CN(CCO)C(=O)CC)cc2c1	31.6µM*
O=C(NCc1cccc(C(F)(F)F)c1)C1CCCN(c2ncccn2)C1 (stereo unspecified)	-7.4%
Cc1ccc(C)c(N2CCN(S(=O)(=O)c3ccc4c(c3)CCC(=O)N4)CC2)c1	-5.4%
N#CCCn1c(=O)c(-c2cc(F)cc(F)c2)nc2cnc(Nc3ccccc3)nc21	4.1%
CC(C)(C)C(=O)COC(=O)c1cccc(NC(=O)c2ccco2)c1	-11.5%
C=CCn1c(-c2ccoc2)n[nH]c1=S	31.6µM*
COc1ccc(NC(=O)c2ccc3c(c2)OCO3)cc1Cl	31.6µM*
Cc1ccc(N=Cc2cccc(O)c2O)c(C)c1	0.1%
CCc1ccccc1NC(=O)CCc1nc(-c2ccc(C)cc2)no1	0.7%
Next part
SMILES	HSD17B inhib
CCOc1ccc(-n2nnnc2SCC(=O)c2ccccc2)cc1	-3.5%
Cc1ccc(CCN2CC(C(=O)NCc3ccco3)CC2=O)cc1 (stereo unspecified)	-1.5%
COc1ccc(-c2cc(O)cc(O)c2)cc1	-20.9%
COc1ccccc1OCC(=O)Nc1cccc(C(=O)N2CCOCC2)c1	-10.4%
COc1ccc(Cc2nnc(SCC(=O)NCC3CCCO3)o2)cc1 (stereo unspecified)	-6.9%
Cc1oc(-c2cccs2)nc1CS(=O)CC(=O)NCCCOC(C)C (stereo unspecified)	-19.7%
NC(=O)C[C@@H]1N[C@]2(C(=O)Nc3ccccc32)[C@@H]2C(=O)N(C3CCCCC3)C(=O)[C@H]12	4.2%
O=C(CSc1nn(-c2ccccc2)c(=S)s1)Nn1cnnc1	2.3%
O=C1Nc2cc(C(=O)N3CCN(Cc4ccccc4)CC3)ccc2SC1N1CCOCC1 (stereo unspecified)	9.7%
Cc1ccc(N2CC(C(=O)NCCc3ccc(S(N)(=O)=O)cc3)CC2=O)cc1 (stereo unspecified)	8.4%
O=C1[C@@H]2C(Cc3ccc(O)cc3)NC3(C(=O)Nc4ccc(F)cc43)[C@@H]2C(=O)N1c1ccccc1 (stereo partly specified)	1.3%
O=C(c1ccco1)N1CCC2(CCCN(c3ccccc3)C2)CC1	-11.9%
COc1ccc(S(=O)(=O)N2CCC(C(=O)Nc3ccc(OC)c(OC)c3)CC2)cc1C	2.1%
Cc1nnc(SCc2ccccc2)n1N	-11.5%
O=C(CN1C(=O)COc2ccccc21)Nc1ccc2c(c1)OCCO2	2.6%
CCCC(=O)Nc1ccc(N2CCN(C(=O)c3ccccc3C)CC2)cc1	1.2%
COc1ccccc1CN1CCC2(CCNCC2)CC1	5.0%
O=C(O)CCc1ccc(-c2cccs2)n1NC(=O)c1ccc(Cl)cc1	-11.5%
c1cncc(CNc2cc(-c3ccoc3)ncn2)c1	-5.8%
NC(=Nc1ccccc1)NC(=O)c1nc(Cl)c(N)nc1N	?
O=C(CCCn1c(=O)[nH]c2ccccc2c1=O)N1CCN(c2ccccn2)CC1	-28.5%
O=C1CCC(C(=O)N(c2ccccc2)C2(C(=O)NC3CCCCC3)CCCCC2)N1 (stereo unspecified)	-5.1%
CC(=O)Oc1c(Cl)c(N2CCOCC2)c(OC(C)=O)c2ccccc12	-4.4%
C=CCNc1nc(Nc2ccc(OC)cc2OC)nc(OCC)n1	-3.8%
Cc1nc(=O)c(-c2ccccc2)c(C)n1Cc1ccccc1	13.7%
CCOc1ccccc1NC(=O)CN(c1ccc(OC)cc1)S(=O)(=O)c1c(C)noc1C	5.8%
CC(C)CC1NC(=O)N(CC(=O)N2CCN(S(=O)(=O)c3ccc4ccccc4c3)CC2)C1=O (stereo unspecified)	4.8%
CCOC(=O)C(NC(C)=O)(Nc1ccc(S(=O)(=O)Nc2nccs2)cc1)C(F)(F)F (stereo unspecified)	-1.3%
CCC(C)C(=O)OC1CCC=C2C=CC(C)C(CCC3CC(O)CC(=O)O3)[C@@H]21 (stereo partly specified)	2.1%
CC(=O)c1ccc(NC(=O)N[C@@H](Cc2ccccc2)C(=O)O)cc1	-13.2%
Cc1ccc(NC(=O)c2ccc(OC(=O)c3ccco3)cc2)cc1	9.0%
O=C(c1cc(S(=O)(=O)N2CCOCC2)ccc1F)N1CCN(Cc2ccccc2)CC1	6.4%
COC(=O)c1ccc(C(NC(=O)OCc2ccccc2)/C(C)=C/[C@@H](C)C(=O)Nc2ccc(OC)cc2)cc1 (stereo partly specified)	-13.8%
COc1ccccc1CNC(=O)C1CCN(Cc2nc(-c3cccc(Cl)c3)oc2C)CC1	7.1%
COc1cccc(C(=O)N2CCN(C(=O)c3cccs3)CC2)c1OC	7.7%
COc1ccc(C2=NOC(C(=O)NC(C)C)C2)cc1 (stereo unspecified)	-0.2%
CCOc1cc(-c2noc(N)c2C(=O)OC)cc(OCC)c1OCC	-2.9%
CCOC(=O)CN1CC23C=CC(O2)C(C(=O)NC2CCCC2)C3C1=O (stereo unspecified)	6.6%
O=C(CCNS(=O)(=O)c1cccc2nsnc12)NCc1cccs1	0.8%
Cn1c(/N=C/c2cc(Cl)ccc2O)nc2ccccc21	2.7%
CC(=O)Oc1ccc(C)cc1N1C(=O)c2ccc(C(=O)O)cc2C1=O	-1.5%
Cc1ccc(Cl)cc1N1CCN(C(=O)C2CCCN(S(=O)(=O)c3cnc[nH]3)C2)CC1 (stereo unspecified)	-0.4%
COC(=O)c1c(C(=O)OC)c2n(c1C)CCC2	6.6%
COc1cc(C2CC(=O)C=C(O)C2)cc(OC)c1OC (stereo unspecified)	12.9%
COc1cccc(-c2cncnc2NCc2ccccc2)c1	0.9%
COCCn1nnnc1CN1CCN2CCCC2C1 (stereo unspecified)	-2.6%
O=C(COc1ccccc1)N(Cc1cc2ccccc2[nH]c1=O)CC1CCCO1 (stereo unspecified)	9.4%
CC1(C)OC(=O)N(Cc2ccco2)C1(C)O (stereo unspecified)	-4.8%
CCN1CCCC1CNc1ncnc2c1[nH]c1ccc(Cl)cc12 (stereo unspecified)	?
O=C(CCNC(=O)Cn1cnc2ccccc2c1=O)NCCC1=CCCCC1	5.6%

An excerpt from above in order of molar mass, ascending.
SMILES	HSD17B inhib
COc1ccc(Cc2nnc(SCC(=O)NCC3CCCO3)o2)cc1 (stereo unspecified)	-6.9%
O=C(CCNC(=O)Cn1cnc2ccccc2c1=O)NCCC1=CCCCC1	5.6%
COC(=O)c1ccc(C(NC(=O)OCc2ccccc2)/C(C)=C/[C@@H](C)C(=O)Nc2ccc(OC)cc2)cc1 (stereo partly specified)	-13.8%

More results
SMILES	HSD17B inhib
O=C(O)c1ccc(COCC(F)(F)F)cc1	6.9%
O=C(COC(=O)C12CC3CC(CC(O)(C3)C1)C2)Nc1ccccc1OC(F)F	4.3%
CCCn1c(-c2ccc(F)cc2)nc2c(NC3CC4CCC(C3)N4C)nc(C)nc21 (stereo unspecified)	31.6µM*
CCc1cc2c(N[C@@H](C)C(=O)O)ncnc2s1	-8.4%
O=c1c[n+](CCCC[n+]2cc(=O)o[nH]2)[nH]o1	-6.2%[11.4 µM]
COc1ccc(N(CC(=O)Nc2ccc(OC)c(Cl)c2)S(=O)(=O)c2c(C)noc2C)cc1	7.3%
CCOC(=O)c1nc(-c2ccc3c(c2)OCO3)[nH]c1C	20µM*
O=C1CCCc2nc(N3CCc4ccccc43)ncc21	-0.5%
Cc1ccc(NC(=O)CCn2nc(C)cc2C)c(C)c1	7.4%
CCOC(=O)c1cc(=O)n2[nH]c(-c3ccc(C)cc3)cc2n1	15.8µM*
Cc1ccc2c(c1)nnn2C1CCN(S(=O)(=O)c2ccc(C(=O)NC3CCCC3)cc2)CC1	-3.0%
COCCCNC(=O)Cn1ncc2ccsc2c1=O	1.2%
Cc1csc(NC(=O)c2cccs2)n1	-1.7%
CC=C(/C(=C/C)c1ccc(O)cc1)c1ccc(O)cc1	-23.2%[25.6 µM]
COc1ccc2cc(C(c3nnnn3CC3CCCO3)N3CCOCC3)c(=O)[nH]c2c1 (stereo unspecified)	-15.2%
CCC(Sc1nc2c(cnn2-c2ccc(Cl)cc2)c(=O)[nH]1)C(=O)OC (stereo unspecified)	4.7%
O=C(COC(=O)c1cnccn1)c1ccc(OC(=O)c2ccccc2)cc1	?
CCOc1cc(S(=O)(=O)NCCc2cccc(C)c2)c(OCC)cc1-n1cnnn1	31.6µM*
C=CCc1cccc2cc(C(=O)N3CCN(C(=O)c4ccco4)CC3)c(=O)oc12	?
Cc1ccc(C)c(NC(=O)CCN2CCOCC2)c1	4.2%
CCC(=O)c1ccc(OCC(O)CN2CCN(S(=O)(=O)N3CCCCC3)CC2)cc1 (stereo unspecified)	-2.3%

Reprinted at random: 7 compounds from above
SMILES	HSD17B inhib
Cc1ccc(NC(=O)CCn2nc(C)cc2C)c(C)c1	7.4%
CC(C)(C)C(=O)COC(=O)c1cccc(NC(=O)c2ccco2)c1	-11.5%
CCOC(=O)c1cc(=O)n2[nH]c(-c3ccc(C)cc3)cc2n1	15.8µM*
Cc1ccc(N=Cc2cccc(O)c2O)c(C)c1	0.1%
COc1cccc(Nc2ncc3ncc(=O)n(CCc4ccccc4)c3n2)c1	0.2%
CC(=O)Nc1nc(-c2ccc(Br)s2)cs1	6.1%
CCOc1ccc2[nH]c(=O)c(CN(CCO)C(=O)CC)cc2c1	31.6µM*
